# 2A firefly = Primary qHTS Assay for Foot and Mouth Disease Virus Antivirals against NCGC Sytravon and CBC Compound Libraries: Firefly Luciferase Signal; HEK cells with a luciferase reporter of 2A StopGo recoding; Potency, µM (top dose mostly 57.5 µM), inactives show at the top dose signal change, negative = less light; 120,000 tested, 0.23% active; AID 1745856, 2022; active = well fitted falling curve with a large enough effect; inconclusive = small, poorly fitted or top-dose-only effect; inactive = no such curve, though single readings can be large or run the other way; note: nearly all actives have a fitted effect of over 60% in size; overnight with compound
# StopGo RLuc = Primary qHTS Assay for Foot and Mouth Disease Virus Antivirals against NCGC Sytravon and CBC Compound Libraries: Renilla Luciferase Signal | HEK cells with a luciferase reporter of 2A StopGo recoding | Potency, µM (series often up to 57.5 µM), for the others: top-dose signal change, negative = less light | 120,000 tested, 0.32% active; active means well fitted falling curve with a large enough effect; inconclusive means small, poorly fitted or top-dose-only effect; inactive means no such curve, though single readings can be large or run the other way; note: nearly all actives have a fitted effect of over 55% in size; overnight with compound
# * hit, by the source's call; ? = inconclusive; & = joins results of further samples; [ ] = another dose, or the depositor's remark. % is set by controls: 0 for no effect and ±100 for the full control effect; potency is the fitted concentration of half-maximal effect. Hits appear at their usual frequency (roughly 0.53% active in at least one column).
mol	2A firefly	StopGo RLuc
CC(Sc1ncccn1)C(=O)NC(c1ccccc1)c1ccccc1 (stereo not given)	2.8%	27.4%
O=C(CC1CCCCC1)Nc1cc(C(F)(F)F)ccc1Cl	14.2%	15.8%
O=C(OCC(=O)c1ccccc1Cl)c1ccc(OCc2ccccc2)cc1	120.3%[activator]	4.0%
COc1ccc(/C=C/c2nc3ccccc3[nH]c2=O)c(OC)c1	248.6%[activator]	30.5%
CCCCCc1c(C)nc(Nc2nc(C)c3ccc(CC)cc3n2)[nH]c1=O	6.1%	-1.7%
COc1ccc(Cn2c(CCC(=O)Nc3cc(OC)c(OC)c(OC)c3)nc3cccnc32)cc1	-4.0%	44.5%[activator]
O=C(Cc1ccc(Cl)cc1)NCC(c1cccs1)S(=O)(=O)c1ccc(Cl)cc1 (stereo not given)	-8.4%	39.7%[activator]
CCN1C(=O)c2ccccc2S(=O)c2ccc(C(=O)N3CCN(c4ccccc4)CC3)cc21 (stereo not given)	-13.4%	-1.7%
Cc1ccccc1Nc1c(-c2ccc(N3CCOCC3)cc2)nc2ccc(Cl)cn12	56.7%[activator]	-2.7%
CCOc1ccccc1OC(=O)c1ccccc1	15.1%	2.9%
Cn1c(=O)c2c(ncn2CC(O)COc2ccc(C(C)(C)C)cc2)n(C)c1=O (stereo not given)	?	?
O=C(Nc1ccccc1C(=O)N1CCCC1)c1cnc2ccccc2n1	32.0%[activator]	0.0%
COc1cccc(-c2csc(-c3c(N)c(C(=O)c4ccccc4)n4ccccc34)n2)c1	9.7%	3.5%
CCCCCCCCCCCCS(=O)(=O)CC(C)C(N)=O (stereo not given)	-18.5%	-7.0%[1.06 µM]
Cc1ccc(Cl)cc1NC(=O)Nc1c(C)n(C)n(-c2ccccc2)c1=O	-3.1%	8.5%
CCOC(=O)c1c(NC(=O)c2nc(SCC)ncc2Cl)sc2c1CCCC2	-13.8%	-6.0%
Cc1cc2c(cc1NC(=O)c1ccccc1C)n(C)c(=O)c(=O)n2C	-17.3%	-6.9%
Cc1ccc(Cn2c(CNC(=O)Cc3cccc(C)c3)nc3cccnc32)cc1	-18.1%	0.0%
Cc1nn(-c2nc3ccccc3o2)c2c1C(c1ccc(C#N)cc1)CC(=O)N2 (stereo not given)	7.9%	122.4%[activator]
CCCCC(NC(=O)Cc1ccccc1)C(=O)O (stereo not given)	-7.4%	-9.1%
Cc1ccc(C(=O)C(C#N)C(=O)Nc2ccccc2C)s1 (stereo not given)	80.3%[activator]	56.8%[activator]
NC(=O)c1cc(Cl)ccc1OCc1ccc(OC(F)(F)F)cc1	0.0%	3.7%
Cc1ccc(NC(=O)Cn2c(=O)n(Cc3nc(C)no3)c(=O)c3cc4c(cc32)OCO4)c(Cl)c1	-21.9%	-13.9%
COc1ccccc1CNC(=O)c1cc2sccc2n1Cc1ccc(F)cc1	2.9%	2.7%
Cc1cccc(NC(=O)c2cc3c([nH]c2=O)CC(c2ccccc2)CC3=O)c1 (stereo not given)	?	?

# New compounds follow.
mol	2A firefly	StopGo RLuc
CC(NC(=O)c1ccc2c(c1)OCC(=O)N2)c1cccs1 (stereo not given)	4.6%	-1.0%
COc1cccc(-c2nc(SCC(=O)NCC3CCCO3)c(-c3ccc(Cl)cc3)[nH]2)c1 (stereo not given)	7.9%	30.9%[activator]
Cc1cc(C)c(NC(=O)Cn2c(=O)c3cccn3c3ccccc32)c(C)c1	-21.3%	0.1%
O=c1oc2ccccc2cc1-c1nnc(Nc2cccc3ccccc23)s1	99.6%[activator]	3.9%
CCOc1ccc(S(=O)(=O)NCc2ccc3c(c2)CCN3C(=O)c2ccc(C)cc2)cc1	-4.7%	33.8%[activator]
CCOC(=O)CCN(CC1CC1)C(=O)Cc1cccs1	8.3%	11.2%
O=c1c2oc3ccccc3c2n(Cc2ccc(Cl)cc2)c(=O)n1Cc1ccccc1	-21.1%	-14.0%
CC(C)CC(=O)NC(NC(=O)CC(C)C)c1ccccc1	16.7%	18.9%
COc1ccc(-c2nc(C)c(C(=O)NCc3ccccc3OC)s2)cc1	42.5%[activator]	43.3%[activator]
COc1cc(Nc2ncc3c(n2)CCN(Cc2ccc(OC(C)C)c(OC)c2)C3)cc(OC)c1	18.3%	-12.6%
Cc1ccc(CN2CCc3nc(N4CCN(C)CC4)ncc3C2)s1	-0.7%	17.3%
O=S(CCN1CCc2ccccc2C1)c1ccccc1 (stereo not given)	20.5%	-6.6%
N#Cc1ccnc(Sc2ccc(Cl)cc2)c1	61.1%[activator]	7.7%
Cc1ccc(NC(=O)CSc2n[nH]c(=O)c3cc(-c4ccco4)nn23)cc1F	133.1%[activator]	5.4%
Cn1c(=O)[nH]c(=O)c2c1nc(Sc1ccccc1)n2CCCc1ccccc1	15.0%	13.6%
Cc1cc(SCc2cc(Cl)c3c(c2)OCCCO3)nc(C)n1	-15.9%	?
Cc1ccc(-n2cnc3cc(C(=O)NC4CCCCCC4)ccc32)cc1Cl	5.5%	25.4%
COCCn1c(SCC(=O)c2cc(C)c(C)cc2C)nc2ccccc2c1=O	-9.1%	10.4%
CC(C)n1nc(C(=O)OCC(=O)Nc2ccc(S(=O)(=O)N(C)C)cc2)c2ccccc2c1=O	0.7%	9.2%
Cc1nc(-c2ccc(CNC(=O)c3nccnc3N)s2)cs1	?	8.91µM*
Cc1ccc2c(=O)cc(C(=O)Nc3sc4c(c3C#N)CCCC4)oc2c1C	2.5%	-3.9%
CCC(C)NC(=O)CSc1nc2cc3c(cc2c(=O)n1CCCCCC(=O)NCc1ccc(OC)cc1)OCO3 (stereo not given)	-4.6%	0.2%
COc1ccc(NC(=O)COc2ccccc2)c2cccnc12	?	?
COc1ccc(/C=C2\Oc3cc(OS(=O)(=O)c4ccccc4)ccc3C2=O)c(OC)c1	10.3%	4.5%
CC1CCCN(CC(=O)NCCC2=CCCCC2)C1 (stereo not given)	0.0%	-1.2%

# (next part)
mol	2A firefly	StopGo RLuc
Cc1cc(C)c(NC(=O)CSc2nc(C)cc(C)c2C#N)c(C)c1	-12.5%	-0.1%
O=C(Cc1c[nH]c2ccccc12)Nc1cccc(C(=O)NC2CC2)c1	19.8%	-3.5%
COCCCNC(=O)c1ccccc1-c1ncc(-c2ccccc2F)o1	14.5%	18.0%
CC(C)(C)C1CCc2c(sc(NC(=O)Cn3nnc(-c4ccccc4F)n3)c2C#N)C1 (stereo not given)	-13.9%	-14.2%
COc1ccc(CCC(=O)NCc2nc3cccnc3n2Cc2ccc(F)cc2)cc1	-0.2%	-17.0%
O=c1c2cccnc2n(Cc2ccccc2F)c(=O)n1Cc1ccccc1Cl	-7.0%	2.1%
Cc1cccc2c(=O)n(CC(=O)Nc3ccc4oc(C(C)(C)C)nc4c3)cnc12	0.3%	-6.2%
Cc1nc2c(C(=O)NCCCN(CC(C)C)CC(C)C)cnn2c(C)c1Cc1c(F)cccc1Cl	-11.1%	-15.0%
CCCn1c(SCc2cc(=O)oc3cc(C)c(C(C)C)cc23)n[nH]c1=O	-8.3%	-2.4%
c1ccc(CNCCCN2CCCCC2)nc1	2.3%	6.4%
CC(Cl)C(=O)NC(C)C1CC2CCC1C2 (stereo not given)	1.8%	1.6%
Cc1ccc(NC(=O)CCc2c(C)[nH]n(-c3ccc(F)cc3)c2=O)cc1F	0.0%	84.6%[activator]
Cc1ccc2nc(C)c(C(=O)NCc3cccnc3-n3cncn3)cc2c1	8.1%	-2.1%
COc1ccc(-c2csc(NC(=O)CN3CCN(c4cccc(C(F)(F)F)c4)CC3)n2)cc1	?	?
O=C(N/N=C/c1cccc(O)c1)C1CC1	0.0%	11.5%
CCOc1ccccc1C(=O)N(Cc1cccs1)c1ccc(Cl)cc1	-21.0%	9.2%
CCCCn1cc2c(c1-c1ccc(Br)cc1)c(=O)n(C)c(=O)n2C	-3.8%&-17.8%	-7.3%&0.0%
O=C(CN1C(=O)CC(c2ccc(F)cc2)=Nc2ccccc21)NCc1ccccc1Cl	-11.6%	-2.4%
C(=N\N=C(c1ccccc1)c1ccccc1)/c1ccccn1	66.5%[activator]	15.7%
Cc1oc(-c2nc(C#N)c(N3CCOCC3)o2)cc1S(=O)(=O)N1CCCC1	-10.7%	4.6%
CC1=C(COc2c3occc3cc3ccc(=O)oc23)CC(C)(C)CC1	5.7%	20.3%
Cc1ccc(CNC(=O)C2CCCN(S(=O)(=O)c3cn(C)cn3)C2)cc1 (stereo not given)	-13.1%	80.0%[activator]
CCOc1ccc(C(=O)COC(=O)c2cc(C)nc3ccccc23)cc1	8.1%	3.3%
O=C(NCc1ccc(F)cc1)c1ccc(NC(=O)N2CC3CCCN3c3ccccc32)cc1 (stereo not given)	4.4%	-13.5%
O=[N+]([O-])c1ccccc1NN=C1CCCC1	46.7%[activator]	-6.4%

# New compounds follow
mol	2A firefly	StopGo RLuc
COc1ccc2c(CN3CCN(c4ccccc4F)CC3)cc(=O)oc2c1	7.5%	4.8%
Cc1cccc2c(C(=O)N3CCN(Cc4ccccc4)CC3)cc(-c3cccnc3)nc12	-4.7%	-2.2%
Cc1ccccc1-c1nnc(SCC(=O)Nc2nnc(-c3ccccc3)o2)n1C	33.9%[activator]	6.3%
O=C(Nc1ccc2c(c1)CCCN2C(=O)c1cccs1)c1cccc(C(F)(F)F)c1	-27.9%	?
Cc1ccc(-c2[nH]c(-c3ccccc3)nc2SCC(=O)NCC2CCCO2)cc1 (stereo not given)	36.7%[activator]	64.8%[activator]
Cc1ccc(NC(=O)CN2CCSc3ccc(S(=O)(=O)N4CCCC4)cc32)cc1	2.3%	0.0%
Cc1cc(NC(=O)N(Cc2ccc(C)o2)C2CC2)no1	-4.3%	-9.6%
COC(=O)c1ccc(C2C(C#N)=C(C)NC(C)=C2C(=O)Nc2ccccc2)cc1 (stereo not given)	16.1%	31.4%[activator]
COc1cccc(NC(=O)c2nnn(Cc3ccc(OC)c(Br)c3)c2N)c1	18.8%	27.7%
COC(=O)Cc1ccc(OCc2ccccc2C#N)cc1	-22.8%	5.1%
N#Cc1ccc(CSc2ccccc2C(=O)Nc2ccc3c(c2)OCO3)cc1	0.0%	10.0%
COc1ccc2c(CNCc3cccs3)c(C(=O)O)n(Cc3ccc(F)cc3)c2c1	-16.7%	0.0%
N#CCCCOC(=O)c1cc(-c2cccs2)nc2ccccc12	22.7%	0.0%
CCN1CCC(NC(=O)C2CC(C)=C(C)CC2C(=O)O)CC1 (stereo not given)	-1.6%	-2.1%
COc1cccc(Nc2nc(-c3ccccc3)cs2)c1	229.0%[activator]	0.4%
COc1ccc(OC)c(NS(=O)(=O)c2ccc(-c3cnc(C)o3)cc2)c1	-29.2%	138.3%[activator]
Cc1nn(-c2ccccc2)c(OC(=O)C(C)C)c1Sc1ccccc1	-23.7%	-11.1%
O/N=C/c1ccc(Cl)cc1	16.3%	2.6%
CNS(=O)(=O)c1ccc(NC(=O)C2c3ccccc3Oc3ccccc32)cc1	-2.8%	2.5%
CCN1CCOC(=O)C1CC(=O)Nc1cccc(OC)c1 (stereo not given)	-11.8%	-26.9%
Cc1ccc(N2C(=O)CSC23C(=O)N(CC(=O)NCc2ccccc2)c2ccccc23)cc1C (stereo not given)	-22.0%	4.0%
CCCC12CN3CC(CCC)(CN(C1)C3c1c[nH]c3ccc(OC)cc13)C2=O (stereo not given)	-11.8%&-10.5%	-19.3%&-6.8%
COc1cccc(NS(=O)(=O)c2cc(C(=O)N3CCCC3)cs2)c1	16.8%	42.4%[activator]
Cc1cnc(C(=O)NCc2sccc2C)cn1	0.0%	12.8%
CC(C)C(CNC(=O)C1CCN(c2nc3ccccc3o2)CC1)N(C)C (stereo not given)	-7.2%	6.3%

# (continued)
mol	2A firefly	StopGo RLuc
Cc1ccc2oc3c(c(=O)c2c1)C(c1ccccc1F)N(c1ccccn1)C3=O (stereo not given)	-17.2%	6.8%
CCCN1C=NS(=O)(=O)c2cc(C(=O)NC3CCCCC3)ccc21	12.6%	128.0%[activator]
COc1ccc(C(=O)Oc2cc(C)ccc2C)cc1I	0.0%	-0.5%[1.06 µM]
Cc1nc(-c2cccc(F)c2)sc1CCNC(=O)C1CCCC1	35.2%[activator]	-14.0%
Fc1ccc(C2=CC(c3cccc(Br)c3)n3nnnc3N2)cc1 (stereo not given)	-7.5%	-13.4%
CCNC(=O)NC(=O)C(C)Sc1nnc(-c2ccccc2)n1CC (stereo not given)	5.8%	5.7%
CC1=CC(C)C(COC(=O)C[N+]2(C)CCOCC2)C(C)C1 (stereo not given)	-0.7%	-7.6%
Cc1ccc(/C(O)=C2\C(=O)C(=O)NC2c2ccc(C)cc2)cc1 (stereo not given)	104.1%[activator]	18.5%
COC(=O)C1(NC(=O)CSc2ccc(Br)cc2)CCCCC1	-3.2%	106.6%[activator]
Cc1[nH]c2ccccc2c1C1(O)C(=O)N(Cc2ccc(Cl)cc2)c2ccccc21 (stereo not given)	?	-2.5%
CC1CCN(CC2CCCCN2)CC1 (stereo not given)	1.1%	3.2%
COC(=O)c1sc2nc(CN3CCc4ccccc4C3)[nH]c(=O)c2c1C	5.5%	2.0%

# One compound at a time, from the list above.
# Shown for `Cc1ccc(Cl)cc1NC(=O)Nc1c(C)n(C)n(-c2ccccc2)c1=O` = 2A firefly = -3.1%; StopGo RLuc = 8.5%
# Shown for `CC(NC(=O)c1ccc2c(c1)OCC(=O)N2)c1cccs1` (stereo not given) = 2A firefly = 4.6%; StopGo RLuc = -1.0%

# Assay outcomes (PubChem BioAssay)
